Rango-impB inh = inhibitors of Rango-importin beta complex formation; Q14974; Rango CFP/YFP FRET sensor + importin beta, 45 min; Potency, µM (highest dose often 92.2 µM), inactives show at the top dose inhibition of complex formation; 340,000 tested, 0.031% active; active = rising FRET ratio curve, often small or poorly fitted; inconclusive = mostly compound fluorescence or quenching in the first reads; inactive = flat curves in all reads;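 note: potency is the fitted concentration of half-maximal effect; 0% = DMSO wells and 100% = buffer wells lacking importin beta; nearly all actives have a fitted effect of over 15% in size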
Target sequence (Q14974 whole entry, looked up): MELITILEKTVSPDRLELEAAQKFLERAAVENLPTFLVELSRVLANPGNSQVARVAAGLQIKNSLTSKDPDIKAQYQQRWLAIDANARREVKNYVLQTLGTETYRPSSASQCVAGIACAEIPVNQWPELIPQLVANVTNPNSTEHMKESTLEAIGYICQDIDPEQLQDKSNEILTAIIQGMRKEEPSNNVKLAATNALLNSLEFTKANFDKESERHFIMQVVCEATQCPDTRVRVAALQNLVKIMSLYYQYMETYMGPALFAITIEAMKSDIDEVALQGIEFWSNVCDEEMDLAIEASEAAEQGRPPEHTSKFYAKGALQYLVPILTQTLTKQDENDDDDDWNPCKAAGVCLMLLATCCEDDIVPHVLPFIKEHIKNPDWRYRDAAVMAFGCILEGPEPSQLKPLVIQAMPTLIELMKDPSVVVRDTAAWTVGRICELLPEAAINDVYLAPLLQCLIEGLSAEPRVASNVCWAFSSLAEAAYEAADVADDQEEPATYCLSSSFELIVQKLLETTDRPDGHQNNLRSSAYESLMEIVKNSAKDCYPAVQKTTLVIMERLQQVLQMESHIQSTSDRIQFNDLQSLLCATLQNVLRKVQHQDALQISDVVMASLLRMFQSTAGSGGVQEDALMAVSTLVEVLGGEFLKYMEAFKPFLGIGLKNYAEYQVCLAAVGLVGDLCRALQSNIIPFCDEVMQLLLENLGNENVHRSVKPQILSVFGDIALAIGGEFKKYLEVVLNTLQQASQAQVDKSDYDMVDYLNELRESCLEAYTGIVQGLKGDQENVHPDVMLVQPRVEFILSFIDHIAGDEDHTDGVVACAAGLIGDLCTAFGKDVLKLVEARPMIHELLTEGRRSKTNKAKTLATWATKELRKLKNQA
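FRET biosensor (snurportin 1 IBB flanked by EYFP and cerulean), 50 nM, with compound 5 min, then 0.125 microM importin beta in PBS, 1 mM DTT, 0.02% Tween-20, 0.1% BSA. CFP/YFP ratio read after 45 min at room temperature; pre-read flags interference.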
miR-21 reporter = raises the signal of a miR-21 reporter; HeLa miR-21 FLuc reporter, luciferase, 48 h; 340,000 tested, under 10 active; AID 2288; Potency, µM (doses to about 38.3 µM), for the others: at the top dose reporter change, positive = more light; active = well fitted rising curve with a large enough effect; inconclusive = small, poorly fitted or top-dose-only effect; inactive = no such curve, though single readings can be large or run the other way;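 note: % of control where 0% means no effect; miR-21 action dims this reporter so a rising signal means less miR-21 action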
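HeLa cells stably expressing CMV-driven firefly luciferase with a downstream miR-21 binding sequence, endogenously expressing miR-21, were treated with titrations (up to about 40uM final) for 48 hours at 37 degree Celsius. Luciferase luminescence was read after lysis.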
GLA inh pH 4.5 = blocks human alpha-galactosidase A at pH 4.5. AID 1467. purified enzyme, 4-MU-alpha-Gal fluorescence, pH 4.5. 230,000 tested, under 10 active. activity change, negative = inhibition, % at 105 µM. P06280; inconclusive = small, poorly fitted or top-dose-only inhibition, or a rising curve; inactive = flat fitted curve, though single readings scatter; no compound was filed as active;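 note: 0% = full activity with enzyme and -100% = basal without enzyme; dose as in the result columns while the protocol names 77 µM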
Rango release inh = inhibitors of RanGTP-induced Rango-importin beta complex dissociation; O95149+P62826; Biochemical FRET Rango-importin beta, RanGTP-induced dissociation; Potency, µM (top dose mostly 46.1 µM), for inactives: top-dose activity change, negative = inhibition; 340,000 tested, 0.071% active; AID 540253; active means falling FRET ratio curve, often poorly fitted, with flat reads before Ran was added; inconclusive means other falling curves, or compound fluorescence or quenching; inactive means flat or rising ratio curve;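 note: potency is the fitted concentration of half-maximal effect; % of control where 0% means no effect; nearly all actives have a fitted effect of over 45% in size; -100% = wells without RanGTP and RCC1; the record marks most hits as doubtful in a second field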
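Compounds preincubate 5 min with complex of recombinant Rango and importin beta in PBS with 1 mM DTT. Ran (0.6 uM) loaded with 2 mM GTP plus 0.2 uM RCC1 starts dissociation; FRET is recorded 45 min later.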
An asterisk follows results filed as active; ? = inconclusive; nt = no result given; & = joins results of further samples. These rows are one share of the data; rates above refer to the full screens.

no.	SMILES	Rango-impB inh	miR-21 reporter	GLA inh pH 4.5	Rango release inh
1	COc1ccc(OCc2nnc(SCC(=O)NCc3ccco3)o2)cc1	1.3%	-7%	6	0%
2	CC(C)C(NC(=O)c1c(F)cccc1F)C(=O)N1CCN(S(=O)(=O)/C=C/c2ccccc2)CC1 (configuration not stated)	0.0%	nt	nt	0%
3	CC1(C)Cc2c(cnn2-c2cccc(F)c2)C(NC(=O)CCN2CCCC2=O)C1 (configuration not stated)	-3.0%	-4%	nt	-16%
4	Cc1cccc(C2C3=C(Nc4[nH]n(-c5ccccc5)c(=O)c42)c2ccccc2C3=O)c1 (configuration not stated)	3.3%	8%	-15	-2%
5	Cc1n[nH]c2c([N+](=O)[O-])c(=O)[nH]c(=O)n12	10%	nt	nt	-5%
6	CC(C)(C)OC(=O)N[C@@H](Cc1ccccc1)c1nnc(S(=O)(=O)Cc2cccc(F)c2)o1	-2.6%	?	2	-5%
7	NC(=O)c1ccsc1NC(=O)COC(=O)Cc1n[nH]c(=O)c2ccccc12	?	nt	nt	-17%
8	O=C(Cn1cnc2ccccc2c1=O)c1ccc(Cl)cc1	0.7%	-64%	-7	1%
9	C[C@@H]1COC(=O)[C@@H](CC(=O)OC(C)(C)C)C/C=C\C[C@@H](CC(=O)N[C@H](CO)Cc2ccccc2)C(=O)N1	7.6%	nt	nt	-1%
10	O=C(CNc1cccc([N+](=O)[O-])c1)NCCCc1ccccc1	-1.3%	6%	nt	-10%
11	CC(C)(C)NC(=O)c1cc(NC(=O)c2cccs2)cc(NC(=O)c2cccs2)c1	0.3%	29%	nt	30%
12	CCOC(=O)[C@H](O)[C@@H](O)c1cccc([C@H](O)[C@@H](O)C(=O)OCC)c1	3.1%	2%	nt	-25%
13	Cc1ccc(C23CC4CC(CC(NC(=O)N5CCN(C)CC5)(C4)C2)C3)cc1	-0.8%	-8%	-2	2%
14	Cc1c(C(=O)N2CCN(c3ccc([N+](=O)[O-])cc3)CC2)sc2ncn(CC(=O)N3CCOCC3)c(=O)c12	-0.5%	1%	nt	-11%
15	Cc1occc1C(=O)N/N=C/C1=C(N2CCOCC2)C(=C\c2ccc(Cl)cc2)/CC1	?	-15%	0	?
16	C[C@H](CO)N1C[C@H](C)[C@@H](CN(C)CC2CCCCC2)Oc2c(NC(=O)CCC(F)(F)F)cccc2C1=O	-2.7%	nt	nt	-2%
17	O=C(Cn1ncc2c3ccccc3n(Cc3cccc(Cl)c3)c2c1=O)NCC1CCCO1 (configuration not stated)	?	-2%	nt	1%
18	Cc1ccc(C)c(OCc2ccc(C(=O)Nc3ccc([N+](=O)[O-])cn3)o2)c1	4.1%	nt	nt	-6%
19	Cc1cccc(N/C=C(\[N+](=O)[O-])S(=O)(=O)c2ccccc2)c1C	7.2%	0%	-2	2%
20	COc1ccc2nc(/C(C#N)=C\c3ccc(Oc4ccc([N+](=O)[O-])cn4)cc3)[nH]c2c1	?	-4%	2	-24%
21	O=C(O)C1CCCN(S(=O)(=O)c2ccc3c(c2)OCCO3)C1 (configuration not stated)	0.5%	0%	2	2%
22	O=C1S/C(=C\c2ccc(Cl)cc2)C(=O)N1CCn1cnnn1	-2.4%	-7%	1	1%
23	Cc1ccc2cc(C#N)c(NCCNC(=S)NCCCN(C)C)nc2c1C	?	?	-6	?
24	CC(C)OCC(O)CN1CCNCC1 (configuration not stated)	0.9%	1%	0	12%
25	COc1cccc(CNC(=O)CCC2CCCN(C(=O)c3ccc(C)nc3)C2)c1 (configuration not stated)	1.4%	-2%	-5	-10%
26	Cc1ccc(SCC(=O)NC2CC2)cc1	-1.1%	-11%	nt	-2%
27	CCC(=O)Nc1ccc(Br)c(Cl)c1	0.1%	-13%	6	2%
28	O=C(CCn1c(=S)oc2ccccc21)N1CCN(c2ccc(F)cc2)CC1	2.6%	-7%	-5	12%
29	CCCCN(CC)C(=O)Cc1cn(C)c2ccccc12	3.9%	-8%	-1	-12%
30	OCCNCCSc1ccc(Cl)cc1	?	-3%	-2	-11%
31	Cc1ccc(NC(=O)CCNS(=O)(=O)c2ccc3c(c2)CCC(=O)N3)cc1C	10%	-1%	nt	9%
32	O=C(CSc1n[nH]c(-c2ccncc2)n1)Nc1ccc(Cl)cc1	0.1%	-6%	nt	1%

A few values from the results shown.
In Rango release inh, NC(=O)c1ccsc1NC(=O)COC(=O)Cc1n[nH]c(=O)c2ccccc12 reads -17%
In GLA inh pH 4.5, Cc1ccc(C23CC4CC(CC(NC(=O)N5CCN(C)CC5)(C4)C2)C3)cc1 reads -2
In miR-21 reporter, OCCNCCSc1ccc(Cl)cc1 reads -3%
In Rango-impB inh, CC(C)(C)OC(=O)N[C@@H](Cc1ccccc1)c1nnc(S(=O)(=O)Cc2cccc(F)c2)o1 reads -2.6%

The list goes on:
no.	SMILES	Rango-impB inh	miR-21 reporter	GLA inh pH 4.5	Rango release inh
33	COc1ccc(C(=O)CSc2nnc(CCc3ccccc3)n2-c2ccccc2)cc1	-0.4%	1%	-1	2%
34	Cn1nc(-c2ccccc2)c(CSc2ccccc2)c1Cl	-0.7%	-15%	9	-9%
35	CC(C)CC(=O)Nc1ccc2c3c(cccc13)CC2	-4.4%	-18%	-7	5%
36	Cc1ccc(C(C)C)c(OCC(=O)Nc2ccc(N3CCN(S(C)(=O)=O)CC3)cc2)c1	-1.9%	-4%	2	3%
37	COc1cc(/C=C/C(=O)OCC(=O)c2ccccc2)cc(OC)c1OC	-0.9%	nt	nt	10%
38	CCOC(=O)C(NC(=O)c1ccc(F)cc1)(Nc1nnc(C)s1)C(F)(F)F (configuration not stated)	0.3%	-4%	-18	-12%
39	COc1ccccc1N1CCN(C(=O)c2cn(C)c3ccc(S(=O)(=O)N4CCOCC4)cc3c2=O)CC1	0.0%	0%&2%	nt	-18%
40	COc1cc(C(=O)NC2CCCc3ccccc32)ccc1OCC(=O)Nc1ccc(F)cc1 (configuration not stated)	-0.5%	0%	12	-8%
41	COC(C(=O)Nc1ccc(F)cc1)c1ccccc1 (configuration not stated)	-1.0%	-2%	3	-6%
42	COc1cccc(C(=O)Nc2cccc(C(=O)NCC(C)C)c2)c1	4.4%	-17%	3	2%
43	COc1cc2c(cc1OC)CN(C1CCC(C)CC1)CC2 (configuration not stated)	-1.3%	0%	nt	-2%
44	CC(/C=C/c1ccc(N(C)C)cc1)=N/N=C1/NC(=O)CC(C(=O)Nc2ccc(Cl)cc2)S1 (configuration not stated)	?	-37%	-22	?
45	CC(=O)Nc1ccccc1C(=O)C(=O)Nc1cccc(Br)c1	1.2%	-41%	-4	-3%
46	CCN(CC)S(=O)(=O)c1ccc(OCC(=O)NC(=O)c2ccccc2OC)c([N+](=O)[O-])c1	-1.9%	-3%	nt	?
47	N#C/C(=C\c1cccc(NC(=O)c2ccccc2Cl)c1)C(=O)NCCc1ccccc1	?	10%	-5	-12%
48	CCOC(=O)CSc1ccc2nnc(-c3ccccc3)n2n1	-1.3%	-3%	5	-25%

Copied from the results shown, 3 compounds:
no.	SMILES	Rango-impB inh	miR-21 reporter	GLA inh pH 4.5	Rango release inh
43	COc1cc2c(cc1OC)CN(C1CCC(C)CC1)CC2 (configuration not stated)	-1.3%	0%	nt	-2%
44	CC(/C=C/c1ccc(N(C)C)cc1)=N/N=C1/NC(=O)CC(C(=O)Nc2ccc(Cl)cc2)S1 (configuration not stated)	?	-37%	-22	?
45	CC(=O)Nc1ccccc1C(=O)C(=O)Nc1cccc(Br)c1	1.2%	-41%	-4	-3%

The list goes on:
no.	SMILES	Rango-impB inh	miR-21 reporter	GLA inh pH 4.5	Rango release inh
49	O=C(CSc1ncccn1)NC1CCS(=O)(=O)C1 (configuration not stated)	-0.7%	-3%	nt	5%
50	COc1cccc(CN2CCNC(=O)C2CC(=O)NCCOc2cccnc2)c1 (configuration not stated)	-0.8%	1%	-10	-4%
51	Cc1ccc(-n2nc3c(N4CCC(C(=O)N5CCCCCC5)CC4)nnc(C)c3c2C)cc1	-0.6%	2%	nt	0%
52	Oc1cc(Nc2ccccc2)cc2cccnc12	-0.5%	nt	nt	-17%
53	COc1cc(/C=C(\NC(=O)c2ccccc2)C(=O)NCCO)c([N+](=O)[O-])cc1OC	-2.1%	-2%	-1	29%
54	O=C(NC1CCCCC1)C(c1ccccc1)N(Cc1ccco1)C(=O)c1csnn1 (configuration not stated)	-0.1%	8%	nt	15%
55	Cc1ccccc1S(=O)(=O)NC1OC(=O)C(Oc2ccccc2)=C1Br (configuration not stated)	-0.4%	-5%	-3	5%
56	O=C(OCC1COc2ccccc2O1)c1ccccc1F (configuration not stated)	-2.4%	-19%	1	-8%
57	COc1cccc(NC(=O)N2CCCC(C(=O)Nc3ccccc3OC)C2)c1 (configuration not stated)	2.3%	-10%	5	-11%
58	CC(C)c1nc2sc(C(=O)O)c(N)c2c2c1CCCC2	?	-15%	1	-6%
59	CCc1cc2c3c(c1)C1(C(=O)N3C(C)(C)CC2C)C(C#N)=C(N)N2C(=C1C#N)Nc1ccccc12 (configuration not stated)	?	5%	-5	?
60	Cc1ccccc1OCCNC(=O)c1ccccc1Sc1ccccc1C#N	1.7%	-9%	3	-4%
61	COc1ccc(OCCN2CCN(C3CC(=O)N(CCC(C)C)C3=O)CC2)cc1 (configuration not stated)	-0.4%	3%	5	14%
62	CCCCNc1nc2sc3c(c2c(=O)n1-c1cccc(Cl)c1)CCN(C)C3	?	-8%	3	?
63	Cc1c(C#N)c2ncnc(-c3ccccc3)c2n1-c1ccccc1	-0.4%	-9%	-7	-4%
64	COc1ccc(CN(CC(=O)NCC2CCCO2)C(=O)CCC(=O)Nc2nccs2)cc1 (configuration not stated)	-0.3%	1%	nt	-5%
65	CN(C)/C=C/C(=O)c1ccc(Br)s1	3.5%	-35%	-2	24%
66	O=C1NC(=Nc2ccccc2Cl)S/C1=C\c1ccc(C(=O)O)cc1	0.3%	-2%	nt	11%
67	CCN(C(=O)COC(=O)c1[nH]c(C)c(C(C)=O)c1C)C1CCS(=O)(=O)C1 (configuration not stated)	-0.2%	-8%	-1	0%
68	CC(=O)[C@@]1(O)CC[C@H]2[C@@H]3CCC4=CC(=O)CC[C@]4(C)[C@H]3CC[C@@]21C	3.8%	-3%	0	0%
69	COC(=O)c1ccc(NC(=O)CCn2c(=O)oc3ccccc32)cc1	-2.2%	-16%	0	-10%
70	Cc1cccc(C)c1NC(=O)c1cc(S(=O)(=O)N2CCOCC2)ccc1F	0.6%	2%	-14	11%
71	CCn1c(SCC(=O)Nc2ccc(C)cc2)nnc1-c1ccc(O)cc1	?	-2%	3	1%
72	O=C(NNC(=O)c1ccccc1[N+](=O)[O-])Nc1ccccc1C(F)(F)F	2.6%	-8%	-1	13%
73	O=C(c1ccoc1)N1CCCC(N2CCN(c3cccc(Cl)c3)CC2)C1 (configuration not stated)	-2.4%	-7%	nt	-14%
74	CSCC[C@H](NC(=O)[C@@H]1Cc2ccccc2CN1)C(=O)Nc1cccc(C)c1	-2.9%	-6%	nt	7%
75	Cc1ccc(Cn2nnc3c(=O)n(CC(=O)N4CCN(c5ccccc5)CC4)cnc32)cc1	2.7%	6%	-12	17%
76	CCOC(=O)c1c(C)[nH]c(C(=O)COC(=O)CNS(=O)(=O)c2ccc(C)cc2)c1C	?	nt	nt	7%
77	CC(=O)c1c(C)[nH]c(C(=O)OCC(=O)Nc2ncc(Cl)c(C)c2Cl)c1C	?	-1%	0	0%
78	COc1cc(OC)cc(C(=O)NCCSc2c[nH]c3ccccc23)c1	1.5%	4%	-7	-12%
79	Oc1ccc(-c2onc3ccc(Cl)cc23)cc1	?	-17%	3	?
80	COc1cc2cc(CN(CCN3CCCC3)C(=O)Nc3ccc(F)cc3)c(=O)[nH]c2cc1OC	8.0%	-2%	5	-6%
81	COc1cc(C2C(C#N)=C(N)OC3=C2C(=O)CCC3)cc(OC)c1OC(=O)N1CCOCC1 (configuration not stated)	?	-1%	-10	7%
82	CO/N=C/c1ccc(OC)c(Oc2nc(OC)cc(OC)n2)c1	-1.0%	15%	5	16%
83	CSc1ncc(C(=O)NCCCc2ccccc2)c(C)n1	-4.1%	-11%	nt	1%
84	Cc1ccc(NC(=O)Cn2cnc3c(NCc4ccccc4)ncnc32)cc1C	4.1%	nt	nt	-5%
85	CN(C)CCNc1cnn(-c2ccccc2)c(=O)c1Cl	?	-6%	-14	?
